Rango release inh: inhibitors of RanGTP-induced Rango-importin beta complex dissociation; Biochemical FRET Rango-importin beta, RanGTP-induced dissociation; AID 540253; O95149+P62826; 0.071% of 340,000 active; Potency, µM (doses to about 46.1 µM), without a hit: at the top dose activity change, negative = inhibition; active means falling FRET ratio curve, often poorly fitted, with flat reads before Ran was added; inconclusive means other falling curves, or compound fluorescence or quenching; inactive means flat or rising ratio curve;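 further: potency means the concentration at half of the fitted maximal effect; % of control where 0% means no effect; nearly all actives have a fitted effect of over 45% in size; -100% = wells without RanGTP and RCC1; the record marks most hits as doubtful in a second field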
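Two FRET readings bracket the reaction: one 5 min after compound meets Rango–importin beta, another 45 min after RanGTP-RCC1 (0.6 uM Ran, 0.2 uM RCC1, 2 mM GTP) is added. Only the second defines inhibition.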
Rango-impB inh: Rango-importin beta binding inhibition | Q14974 | Rango CFP/YFP FRET sensor + importin beta, 45 min | Potency, µM (highest dose often 92.2 µM), for the others: top-dose inhibition of complex formation | 0.031% of 340,000 active | AID 540263; active = rising FRET ratio curve, often small or poorly fitted; inconclusive = mostly compound fluorescence or quenching in the first reads; inactive = flat curves in all reads;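 further: potency means the concentration at half of the fitted maximal effect; 0% = DMSO wells and 100% = buffer wells lacking importin beta; nearly all actives have a fitted effect of over 15% in size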
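FRET biosensor (snurportin 1 IBB flanked by EYFP and cerulean), 50 nM, with compound 5 min, then 0.125 microM importin beta in PBS, 1 mM DTT, 0.02% Tween-20, 0.1% BSA. CFP/YFP ratio read after 45 min at room temperature; pre-read flags interference.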
miR-21 FLuc: miR-21 reporter, rising signal. HeLa miR-21 FLuc reporter, luciferase, 48 h. Potency, µM (titrated, usually from 38.3 µM), inactives show top-dose reporter change, positive = more light. 340,000 tested, under 10 active. AID 2288; active = well fitted rising curve with a large enough effect; inconclusive = small, poorly fitted or top-dose-only effect; inactive = no such curve, though single readings can be large or run the other way;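 further: % of control where 0% means no effect; miR-21 action dims this reporter so a rising signal means less miR-21 action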
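Luminescence from a firefly luciferase reporter carrying a miR-21 binding site downstream, stably expressed under a CMV promoter in HeLa cells that make miR-21 endogenously, reports miRNA modulation after 48 h compound exposure up to approximately 40uM final.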
GLA inh pH 4.5: blocks human alpha-galactosidase A at pH 4.5; P06280; purified enzyme, 4-MU-alpha-Gal fluorescence, pH 4.5; activity change, negative = inhibition, % at 105 µM; 230,000 tested, under 10 active; AID 1467; inconclusive = small, poorly fitted or top-dose-only inhibition, or a rising curve; inactive = flat fitted curve, though single readings scatter; no compound was filed as active;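 further: 0% = full activity with enzyme and -100% = basal without enzyme; dose as in the result columns while the protocol names 77 µM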
Target sequence (P06280 whole entry, looked up): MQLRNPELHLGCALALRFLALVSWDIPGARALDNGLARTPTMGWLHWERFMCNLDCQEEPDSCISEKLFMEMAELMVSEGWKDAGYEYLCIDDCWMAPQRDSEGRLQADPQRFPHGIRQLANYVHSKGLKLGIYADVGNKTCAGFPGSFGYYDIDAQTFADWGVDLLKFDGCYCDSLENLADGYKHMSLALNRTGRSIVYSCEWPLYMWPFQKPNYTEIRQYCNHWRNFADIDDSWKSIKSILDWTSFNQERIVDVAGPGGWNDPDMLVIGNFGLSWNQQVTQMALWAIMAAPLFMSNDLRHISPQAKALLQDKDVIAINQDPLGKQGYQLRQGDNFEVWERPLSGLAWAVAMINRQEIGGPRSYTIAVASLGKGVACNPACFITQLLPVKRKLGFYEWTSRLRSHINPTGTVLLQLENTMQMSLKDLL
* marks the source's active call; other numbers are inactive results; ? = inconclusive; nt = not tested or not shown; & = joins results of further samples. A portion of the library. The share of hits here may be higher or lower than overall.

Rango release inh	Rango-impB inh	miR-21 FLuc	GLA inh pH 4.5	SMILES
7%	-3.1%	nt	nt	COC(=O)[C@H](Cc1ccccc1)NC(=O)Cn1cnc2c(OCc3ccccc3)ncnc21
-8%	1.1%	-44%	12	CCSc1nnc(Nc2ccc(C)cc2)s1
2%	-0.7%	12%	-2	COc1cc2nc(=S)n3[nH]c(CCn4nc(C)cc4C)nc3c2cc1OC
-19%	?	-16%	6	CN(C(=O)CSc1ncnc2scc(-c3ccccc3)c12)C1CCS(=O)(=O)C1 (configuration not stated)
24%	0.2%	-2%	-4	Cc1cccc(/C(N)=N/OC(=O)COc2ccc(Cl)cc2)c1
4%	2.9%	18%	nt	COc1ccc(CCN2CCCn3c2nc2c3c(=O)n(CC(C)C)c(=O)n2C)cc1OC
-3%	-0.9%	-3%	1	Cc1cccc2sc(NC(=O)CSCc3ccccc3)nc12
-9%	-0.6%	7%	-7	NC(=O)c1ccc(NC(=O)COC(=O)C2CC(=O)N(Cc3ccccc3)C2)cc1 (configuration not stated)
-4%	-1.6%	-26%	2	Cc1nn(C)c(C)c1C1Nc2ccccc2C(=O)N1O (configuration not stated)
-9%	-0.3%	nt	nt	O=C(CSC1=Nc2ccccc2C2CC=NN12)NCc1ccco1 (configuration not stated)
13%	0.1%	nt	nt	O=C1COc2ccc(C(=O)COC(=O)c3nc(Cl)ccc3Cl)cc2N1
?	?	0%	12	Cc1cccc(N2CCN(C(=O)c3cccn4c(=O)c5c(C)c(C)sc5nc34)CC2)c1C
-6%	-1.1%	0%	-2	CC(C)OC(=O)COc1cc(O)c2c(=O)cc(-c3ccccc3)oc2c1
-1%	6.8%	nt	nt	CSc1ccc(C(=O)C2CCCN(C(=O)CCc3c(C)nn(C)c3C)C2)cc1 (configuration not stated)
-1%	-9.6%	nt	nt	CCOC(=O)c1ccc2ncc(C(=O)OCC)c(NCCN(C)C)c2c1
-7%	0.7%	-1%	3	COc1ccc(Cl)cc1NC(=O)CSc1nnc(Cc2cccn2C)n1-c1ccc(F)cc1
-11%	-1.9%	1%	4	O=C(CN1CCOCC1)Nc1ncccn1
-5%	0.9%	nt	nt	CCOc1ccccc1N1CC(C(=O)Nc2cc(S(C)(=O)=O)ccc2Cl)CC1=O (configuration not stated)
22%	-3.1%	1%	-7	CC(C)(C)NC(=O)CSc1nc(N)cc(=O)[nH]1
42%	11%	0%	7	NC(=O)COC(=O)c1ccccc1OCc1ccccc1

Quoted from the entries so far, two compounds:
Rango release inh	Rango-impB inh	miR-21 FLuc	GLA inh pH 4.5	SMILES
7%	-3.1%	nt	nt	COC(=O)[C@H](Cc1ccccc1)NC(=O)Cn1cnc2c(OCc3ccccc3)ncnc21
-8%	1.1%	-44%	12	CCSc1nnc(Nc2ccc(C)cc2)s1

Other entries.
Rango release inh	Rango-impB inh	miR-21 FLuc	GLA inh pH 4.5	SMILES
-21%	-1.1%	-3%	nt	COc1ccc(NC(=O)C2CCN(S(=O)(=O)c3c(C)nn(C)c3C)CC2)cc1
-6%	-4.6%	-4%	-10	c1ccc(-c2nc3nonc3c3nc4ccccc4n23)cc1
-3%	0.6%	2%	-4	CCN(CC)S(=O)(=O)c1cc(NS(=O)(=O)c2ccccc2)ccc1C
-7%	-0.3%	2%	-6	COc1ccccc1-n1cnnc1SCC(=O)NCC1CCCO1 (configuration not stated)
-6%	4.0%	-2%	-4	CC(C)c1ccccc1NC(=O)CC1(CC(=O)O)CCCC1
-20%	?	nt	nt	COC(=O)C1=C[C@@H](C(=O)OC)[C@@H]2C3=C(C(=O)C2(C)C)[C@H](c2ccccc2)[C@@H]2C(=O)N(C)C(=O)[C@@H]2[C@@H]3C1
1%	3.1%	-1%	-2	CCOc1ccc(NC(=O)CN(C)C(=O)C2CCCC2)cc1OCC
12%	4.3%	-20%	nt	CCCCc1cc(=O)oc2c(C)c(OCC(=O)NCC3CCC(C(=O)O)CC3)ccc12 (configuration not stated)
-22%	1.9%	-52%	9	CN1CCN(/N=C/c2nc(-c3ccc(Cl)cc3)n3ccccc23)CC1
8%	3.2%	-6%	-4	CC1CCCN(C(=O)C(Cc2ccccc2)n2cccc2)C1 (configuration not stated)
?	-3.0%	nt	nt	CN(Cc1cccc(F)c1)C(=O)C1CC(=O)N(c2ccc3c(c2)OCCO3)C1 (configuration not stated)
7%	3.0%	2%&-19%	nt	COc1cccc(-c2cc(C(=O)Nc3ccc4c(c3)OCO4)no2)c1
1%	3.5%	-4%	1	Cc1nc2ccccc2nc1OCC(=O)NCC(F)(F)F
3%	0.0%	0%	nt	COc1ccccc1CNC(=O)c1cc(S(=O)(=O)N2CCOCC2)cn1C
9%	-1.0%	1%	7	COc1ccc(OC)c(C2/C(=C(/O)c3ccc(C)cc3)C(=O)C(=O)N2Cc2ccco2)c1 (configuration not stated)
?	?	0%	-9	Cc1cccn2c(=O)c(/C=C(\C#N)C(=O)NCc3ccco3)c(N3CCCCCC3)nc12
1%	?	-4%	2	COc1ccc(S(=O)(=O)Nc2ccc(Cl)cn2)c(C)c1C
10%	-4.0%	0%	nt	CC(=O)c1ccc(S(=O)(=O)N(C)CC(=O)N2CCCCCC2)cc1
-9%	1.8%	1%	nt	Cc1ccc(Nc2nc(N3CCOCC3)nc(N3CCOCC3)n2)cc1Cl
20%	3.6%	-2%	8	CN1C(=O)c2ccc(C(=O)Nc3nccs3)cc2C1=O
1%	-1.9%	-10%	nt	CCOC(=O)C1CCN(c2nc(C)nc3c2oc2ccccc23)CC1
-10%	-2.3%	nt	nt	CN1C(C(=O)NCc2ccco2)CC2Cn3c(nc4ccccc43)C21 (configuration not stated)
-2%	-2.9%	-8%	-16	COc1ccc(S(=O)(=O)Nc2ccc(S(=O)(=O)N(C)C)cc2)cc1[N+](=O)[O-]
-6%	?	nt	nt	Cc1ccc(C(=O)O)cc1NC(=O)CSc1nnc(-c2ccccc2F)n1C1CCCCC1
5%	-2.8%	2%	-4	Cc1ccc(C)c(N2CCN(C(=O)c3ccc(NS(=O)(=O)c4c(C)noc4C)cc3)CC2)c1
-7%	-2.3%	0%	nt	O=C1Cc2ccccc2C(c2c(Cl)cccc2Cl)N1 (configuration not stated)
-16%	0.9%	20%	nt	CC(C)=NOCC(=O)Nn1c(COc2c(C)cccc2C)nc2ccccc2c1=O
2%	-5.2%	-2%	nt	CC(=O)C12OC1CC1C3CCC4=CC(=O)CCC4(C)C3CCC12C (configuration not stated)
15%	-0.8%	0%	8	CCn1c(C(=O)O)c(CC(=O)Nc2ccccc2F)c2ccccc21
-3%	2.9%	-2%	-8	CCOC(=O)c1c(NC(=O)CSc2nc3cccnc3n2C)sc(C(C)=O)c1C
-2%	3.0%	0%	nt	CC(NC(=S)NNS(=O)(=O)c1cccc([N+](=O)[O-])c1)c1ccccc1 (configuration not stated)
-8%	-1.3%	-2%	nt	CC(C)CNS(=O)(=O)c1ccc(S(=O)(=O)N2CCN(C3CCCC3)CC2)cc1
-1%	-0.4%	nt	nt	COc1ccc(NS(=O)(=O)c2cc(NC(=O)[C@H](C)NC(N)=O)ccc2N2CCCC2)cc1
16%	3.9%	-43%	6	COc1ccc(-c2noc(-c3ccc(Cl)cc3)n2)cc1
-2%	0.7%	-9%	-8	Cc1ccc(C(=O)NC=C(Cl)Cl)cc1
16%	-2.4%	-36%	-3	CC(=O)c1ccc(OCC(O)Cn2nnc3ccccc32)cc1 (configuration not stated)
?	?	18%	3	COc1ccc(C2=CC(c3cc(OC)c(OC)c(OC)c3)NC(=S)N2)cc1 (configuration not stated)
-8%	0.4%	-4%	-3	CCOc1cc(S(=O)(=O)NCc2ccc3c(c2)OCO3)ccc1F
-11%	3.0%	nt	nt	Cc1cc(NC(=O)COC(=O)c2ccc(OC(F)(F)F)cc2)no1
-2%	-1.1%	-7%	nt	Cc1ccccc1NC(=O)COc1ccc(S(=O)(=O)N2CCCC2)cc1C
-1%	-0.4%	nt	nt	COc1cc(C(=O)Nc2cc3c4c(c2)CC(=O)N4CCC3)cc(OC)c1OC
13%	1.7%	-1%	-8	CC1CCN(S(=O)(=O)c2ccc3[nH]cc(C(=O)NCCN4CCOCC4)c(=O)c3c2)CC1
0%	2.7%	-18%	-1	CCn1cnc2c1c(=O)n(Cc1csc(-c3ccccc3)n1)c(=O)n2Cc1ccccc1
nt	nt	21%	-9	CCC1(C)OCC(Cn2c3ccccc3c3ccccc32)O1 (configuration not stated)
7%	5.7%	nt	nt	O=[N+]([O-])c1ccc(Cl)c(S(=O)(=O)Nc2ccc(-c3ccc(N4CCCC4)nn3)cc2)c1
-1%	3.5%	1%	7	O=C(Cc1ncc(C(F)(F)F)cc1Cl)Nc1ccc(F)cc1
7%	-0.6%	-73%	1	O=C(NC(=S)Nc1ccc2c(c1)OCCO2)c1cccc(Br)c1
1%	5.5%	0%	nt	CCOc1ccc(N(CC(=O)NCCc2ccccc2)C(=O)CCC(=O)Nc2cc(C)ccn2)cc1
-1%	4.4%	0%	nt	O=C(c1cc(COc2ccccc2)on1)N1CCCC(OCc2cccnc2)C1 (configuration not stated)
?	-0.9%	-1%	-2	CCOC(=O)CCNC(=O)CNC(=O)OCc1ccccc1
-7%	-3.4%	nt	nt	CC(=O)c1ccc(S(=O)(=O)NCCCC(=O)N(C)Cc2ccc3c(c2)OCO3)cc1
-8%	-0.8%	nt	nt	CCN(Cc1nc2cc(Cl)ccc2c(=O)[nH]1)C(=O)c1cccc(OCc2c(C)noc2C)c1
28%	0.7%	-5%	-4	CC(=O)Nc1ccc(C(=O)NNS(=O)(=O)c2ccc(C)cc2)cc1
-7%	?	-10%	-3	CN(c1ccc([N+](=O)[O-])cc1C(=O)Nc1ccccc1)C1CCCCC1
22%	-0.4%	-39%	-24	c1ccc(-c2ccc(-c3csnn3)cc2)cc1
-9%	-3.4%	nt	nt	COc1cc(C2OC(=O)C3C(c4ccc(OC(C)=O)c(OC)c4)OC(=O)C23)ccc1OC(C)=O (configuration not stated)
15%	1.8%	-12%	-1	CC(C)NCC(O)COCCOc1ccc(Br)cc1 (configuration not stated)
-10%	-1.4%	nt	nt	C#CCOCCOCCOCCNc1nc(N2CCOCC2)nc(N2CCN(C(=O)CCCCCCCCCCNC(=O)[C@H](CO)n3cc(CCCSC)nn3)CC2)n1
-5%	3.3%	6%	0	Cc1ccc2c(c1)nnn2C1CCN(CC(=O)N2c3ccccc3CC2C)CC1 (configuration not stated)
-4%	-1.4%	-5%	1	O=C1Nc2ccccc2C12OCCCCO2

Shown comma-delimited: entries from further up.
molecule,Rango release inh,Rango-impB inh,miR-21 FLuc,GLA inh pH 4.5
COc1cc2nc(=S)n3[nH]c(CCn4nc(C)cc4C)nc3c2cc1OC,2%,-0.7%,12%,-2
CN(C(=O)CSc1ncnc2scc(-c3ccccc3)c12)C1CCS(=O)(=O)C1 (configuration not stated),-19%,?,-16%,6

Continued.
Rango release inh	Rango-impB inh	miR-21 FLuc	GLA inh pH 4.5	SMILES
-11%	-0.9%	-4%	5	CCCNS(=O)(=O)c1ccc(CCC(=O)NCc2cccnc2)cc1
-10%	-4.4%	-4%	nt	O=Cc1c(NCc2ccccc2F)c2ccccc2[nH]c1=O
3%	0.1%	-29%	nt	O=C(Nc1ccccc1C(=O)Nc1ccncc1)c1cccc([N+](=O)[O-])c1
1%	-1.6%	1%	-2	CCOC(=O)N1CCN(C(=O)C(CC)n2nc(C)c3sc4ccccc4c3c2=O)CC1 (configuration not stated)
-1%	-3.6%	-10%	4	CCC(C(=O)N1CCN(c2ccccn2)CC1)n1nc(C)n2c(cc3occc32)c1=O (configuration not stated)
0%	-5.9%	-13%	-2	CN(C)C(=O)c1ccc(NC(=O)c2ccccc2Sc2ccccc2C#N)cc1
6%	-0.2%	4%	2	O=C(O)CCc1ccc(-c2ccc(Br)cc2)n1CC(=O)O
-28%	?	-32%	8	Cc1c(C(=O)Nc2ccc(Cl)cc2)c2ccccn2c1CCc1ccncc1
-10%	-1.6%	0%	nt	CCOc1cc(C(=O)Nc2cc3c(cc2N2CCCC2)n(C)c(=O)n3C)cc(OCC)c1OCC
44%	-4.1%	-9%	-8	COC(=O)c1cc(-c2c[nH]c3ccccc23)n[nH]1
16%	3.3%	-12%	nt	Cc1ccc(NC(=O)/C(=C\c2cccnc2)NC(=O)c2ccccc2)cc1

High-throughput results from PubChem.
